Screening data (PubChem BioAssay)
Vif A3G: inhibitors of Vif binding to APOBEC3G peptide, primary screen, biochemical, TR-FRET, GST-Vif 1-94, biotin-A3G peptide, dose response retest (AID 1117319); 260,000 compounds, 0.57% hits; TR-FRET GST-Vif / biotin-A3G peptide binding; higher % means a stronger effect; test concentration not given here; strong numbers were not always called active; inhibition, %; hits with a dose series show IC50 in µM;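 active = above the screen mean plus three standard deviations and confirmed in dose response; inconclusive = results disagree or hit not tested in dose response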;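 also: Vif residues 1-94 fused to GST binding biotinylated APOBEC3G peptide 110-148; 0% = full assay without inhibitor and 100% = GST in place of GST-Vif; retest series ran down from 100 µM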
MLL AF4-AF9 inh: inhibitors of human MLL-AF4/AF9 interaction; P42568; inhibition, % at 10 µM; 350,000 compounds, 0.47% hits; AlphaScreen, biotin-AF4 peptide binding to FLAG-AF9; AID 651704;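 active = every replicate reaching a set inhibition limit, whatever the replicate mean, cut at about 25% in these data; inconclusive = mean inhibition reaches that limit but some replicates miss it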;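 also: 0% = plate neutral control median and 100% = total signal loss; the record names both 10 and 1 µM as test concentration; the first replicate is given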
Target sequence (P42568 whole entry, looked up): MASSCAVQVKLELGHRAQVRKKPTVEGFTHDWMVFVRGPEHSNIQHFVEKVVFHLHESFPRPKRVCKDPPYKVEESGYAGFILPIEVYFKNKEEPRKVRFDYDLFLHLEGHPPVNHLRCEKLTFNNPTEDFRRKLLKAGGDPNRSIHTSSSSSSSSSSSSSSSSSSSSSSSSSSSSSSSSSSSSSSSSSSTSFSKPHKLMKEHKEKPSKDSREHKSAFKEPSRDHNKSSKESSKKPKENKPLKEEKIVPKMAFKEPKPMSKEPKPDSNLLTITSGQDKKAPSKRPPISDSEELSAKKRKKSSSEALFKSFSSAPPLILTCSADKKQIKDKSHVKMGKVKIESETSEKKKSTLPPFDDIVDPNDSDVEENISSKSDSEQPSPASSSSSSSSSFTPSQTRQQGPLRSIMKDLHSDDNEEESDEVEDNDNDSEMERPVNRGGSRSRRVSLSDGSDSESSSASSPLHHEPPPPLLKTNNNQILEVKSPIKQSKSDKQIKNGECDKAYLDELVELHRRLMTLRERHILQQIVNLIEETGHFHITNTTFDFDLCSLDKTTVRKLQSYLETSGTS
Ecoli growth: blocks Escherichia coli growth; OD600, 23 h; hits give low values; 330,000 compounds, 0.21% hits; AID 1053175; OD600 absorbance (concentration not given with the values);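 active = OD600 absorbance below the run mean of sample wells minus 3.6 SD, in any replicate, cut at about 0.56 in these data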;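 also: stock transfer was 300 nL into about 60 µL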
rRNA inh HTS: selective bacterial rRNA inhibition in E. coli | E. coli WT GFP vs humanized-ribosome RFP mutants, fluorescence, 24 h; hits give low values; DMSO median 0, no signal -100 | GFP signal change (wild-type ribosome), % (concentration not given with the values) | 350,000 compounds, 1.6% hits | AID 720706;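 active = significant combined selectivity score with lowered wild-type GFP, culture density cut under 30%, mutant RFP and density less affected; inactive = any of these conditions unmet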; also: one replicate is shown; some compounds called inactive have numbers as strong as hits
ALR H2O2 inh: inhibitors of human sulfhydryl oxidase ALR; P55789; purified ALR, DTT oxidation, H2O2 HRP-luminol luminescence; inhibition, % (no concentration beside the values); 290,000 compounds, 3.8% hits; AID 485317;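 active = mean and each replicate at 75% or more; inconclusive = only one of the two met; inactive = neither met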;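 also: stock transfer was 7.5 nL into about 7.5 µL; 0% = neutral wells and 100% = wells with inactivated enzyme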
HNF4A DNA FP: change in binding of human HNF4 alpha to DNA; P41235; HNF4a-FITC DNA binding, fluorescence polarization, 1 h; activity change, % at 10 µM; 360,000 compounds, 0.3% hits; AID 1224865; in the data active = activity change above about 30%, passing the limit was not always enough;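 also: controls were the assay level and a saturating level of protein; the project sought stronger binding though the title names inhibitors; some compounds called inactive have numbers as strong as hits; positive values seem to mean higher polarization but the record does not say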
Target sequence (P41235 whole entry, looked up): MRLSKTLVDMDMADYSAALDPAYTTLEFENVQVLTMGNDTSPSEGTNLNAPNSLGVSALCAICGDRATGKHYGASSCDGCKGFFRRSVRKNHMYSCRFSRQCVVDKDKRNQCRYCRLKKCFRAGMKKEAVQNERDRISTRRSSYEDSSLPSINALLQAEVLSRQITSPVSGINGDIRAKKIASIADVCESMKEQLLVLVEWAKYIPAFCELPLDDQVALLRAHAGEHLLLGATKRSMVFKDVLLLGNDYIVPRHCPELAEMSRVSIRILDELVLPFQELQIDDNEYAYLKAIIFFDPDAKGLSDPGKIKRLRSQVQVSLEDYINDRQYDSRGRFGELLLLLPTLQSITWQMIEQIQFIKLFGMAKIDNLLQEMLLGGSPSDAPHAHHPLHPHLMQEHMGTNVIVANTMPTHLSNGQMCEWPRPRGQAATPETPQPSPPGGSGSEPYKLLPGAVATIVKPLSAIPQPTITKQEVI
FGF22 binding: shifts melting point of recombinant human FGF22; Q9HCT0; recombinant FGF22 thermal shift, SYPRO orange fluorescence; percent of sucrose octasulfate shift, DMSO zero; AID 651658; 340,000 compounds, 1.5% hits; calls only at 9.99 µM;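 active = melting point raised past a set limit in the mean and every replicate; inconclusive = no clear call; three in four hits are not shown here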
rRNA inh HTS OD600: also measured in rRNA inh HTS; calls as there; OD600 change, %; measured here: OD600 growth;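 optical density of the mix in the first replicate; 0 = DMSO median and -100 = no signal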
rRNA inh HTS RFP: also measured in rRNA inh HTS; calls as there; RFP signal change, %; measured here: RFP humanized mutant strains;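 first replicate; 0 = DMSO median and -100 = no signal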
Starred values were filed as active, the others as inactive; i = inactive; ? = inconclusive; . = not tested or not shown; & = joins results of further samples.

SMILES	Vif A3G	MLL AF4-AF9 inh	Ecoli growth	rRNA inh HTS	rRNA inh HTS OD600	rRNA inh HTS RFP	ALR H2O2 inh	HNF4A DNA FP	FGF22 binding
CCOC(=O)C(=O)N1CCC(C(=O)OC)CC1	-5%	0.2	0.7	10	6	0.4	-6	-1.5	i
COc1ccc(S(=O)(=O)N2CCN(C)CC2)cc1C	3%	0.4	0.71	5	1	-2.3	13	-0.9	i
O=C(NC(c1ccc(-c2ccccc2)cc1)c1cnccn1)C1CCN(CCCOc2ccccc2)CC1 (stereo not drawn)	.	-0.5	.	-59	-77	-16	.	2.4	i
COC(=O)[C@]12C[C@H](CC(=O)NCC3CCCCC3)C(=O)N(Cc3ccc4c(c3)OCO4)C1=C[C@H](COCc1ccccc1)O[C@@H]2C	.	-0.6	.	8	8	7.8	.	.	i
CCc1ccc2oc(=O)cc(CN3CCOCC3)c2c1	3%	.	0.68	.	.	.	-10	-2.8	.
CCN(CC)CC(=O)Nc1cc(N(C)C)nc2ccccc12	-7%	-6.4	0.7	6	7	-0.3	.	1.2	i
COc1ccccc1NS(=O)(=O)/C=C/c1ccccc1	-2%	4.7	0.64	-13	-14	-4.7	.	-1.8	i
O=c1[nH]c(CSc2nnc(-c3cccnc3)n2C2CCCCC2)nc2ccccc12	?	.	0.64	.	.	.	39	3.2	.
C[C@H](CO)N1C[C@H](C)[C@@H](CN(C)Cc2ccc(Oc3ccccc3)cc2)Oc2c(NC(=O)C3CC3)cccc2C1=O	.	2.6&3.7	.	-1&10	0&-6	0.3&-3.0	-1	1.1	i
COc1ccc(NC(=O)COC(=O)CCNS(=O)(=O)c2ccccc2)cc1OC	13%	-1.4	0.66	14	9	1.0	-13	3.2	.
Cc1c(NC(=O)/C(C#N)=C/c2ccc(-c3cccc(Cl)c3)o2)c(=O)n(-c2ccccc2)n1C	.	.	0.66	.	.	.	36	2.3	.
CC(=O)NCCc1nc2cc(NC(=O)c3ccccc3C)ccc2n1C	4%	-4.1	0.66	-5	6	-1.3	-33	5.2	i
COC(=O)[C@]12CCCCC=C1N(Cc1ccc3c(c1)OCO3)C(=O)[C@H](CC(=O)NCc1cccc3ccccc13)C2	.	-0.5	.	2	6	1.1	.	-2.4	i
COc1ccc(-c2cn3ccccc3n2)cc1[N+](=O)[O-]	.	1.5	0.69	10	3	4.3	7	11	i
Cc1cc(=O)[nH]c(SCC(=O)Nc2ccc(Br)cc2)c1C#N	2%	.	0.51*	.	.	.	99*	0.5	.
NC(=NCCc1ccc(Cl)cc1)NS(=O)(=O)c1ccc(F)cc1	.	.	0.68	.	.	.	28	-0.1	.
N#CCCN(C(=O)COC(=O)C1CCN(S(=O)(=O)c2cccs2)CC1)c1ccccc1	-4%	-2.4	0.64	0	-4	0.8	7	-6.7	i
O=C(N/N=C/c1ccc(O)cc1)c1csc2ccccc12	21%	.	.	.	.	.	98*	-1.7	.
Cc1ccc(-n2[nH]c(C)c(C=Nc3ccc(S(=O)(=O)Nc4nc(C)cc(C)n4)cc3)c2=O)c(C)c1	.	-4.3	0.61	11	9	-1.3	64	-0.7	i
COc1ccc2[nH]c3c(=O)n(CCCCC(=O)N4CCCC4)c(=S)[nH]c3c2c1	25%	.	0.75	-18	5	8.9	-3	-1.5	.
Cc1cc(N/N=C/c2ccncc2)c([N+](=O)[O-])cc1[N+](=O)[O-]	-2%	-0.5	.	13	16	0.6	-18	-6.2	i
CCc1cc(C(=O)Nc2cc(S(=O)(=O)N(C)C)ccc2C)sc1C	13%	0.4	0.69	-17	-9	14	.	-2.5	i
Cc1ccc(NC(=O)C2(C)CCCN2C)cc1C (stereo not drawn)	.	-1.3	.	6	9	-4.4	.	-1.6	i
O=C(N[C@H]1C=C[C@@H](CC(=O)N2CCCCC2)O[C@H]1CO)c1ccccn1	.	-0.9	.	1	-1	0.8	.	.	i
COc1ccc(Nc2ncnc3ccccc23)c(OC)c1	.	.	0.69	.	.	.	4	0.0	.
Cc1ccc(OCCCn2ccnc2)c([N+](=O)[O-])c1	.	.	0.65	.	.	.	4	2.0	.
N#CCCn1cc(C(=O)N2CCCCC2)c(-c2ccc([N+](=O)[O-])cc2)n1	3%	-0.4	0.71	4	5	0.1	0	5.9	i
CCCc1nc2c(=O)n(C)c(=O)nc-2n(C)n1	-1%	-3.6	0.44*	-46	-76	-26	.	157*	i
Cc1ccc(CCN2CC(C(=O)NCc3ccc4c(c3)OCO4)CC2=O)cc1 (stereo not drawn)	-6%	0.6	0.63	2	-4	0.7	-7	2.6	i
COc1ccc(C2C3C=CCC(c4cccc(-c5ccc(C)cc5)c4)C3C(=O)N2Cc2ccccc2)cc1Cl (stereo not drawn)	1%	-5.4	0.68	8	2	13	9	-2.4	i
c1ccc(CCc2nc3ccccc3[nH]2)cc1	-3%	-0.1	0.64	10	9	1.8	-5	1.3	i
c1sc2[n+](c1C13CC4CC(CC(C4)C1)C3)CCS2	-3%	.	0.69	.	.	.	-2	0.7	.
Cc1ccc(NC(=O)COC(=O)COc2cccc3c2OC(C)(C)C3)cc1C	.	-2.6	0.69	8	5	-3.2	0	-2.0	i
NS(=O)(=O)c1ccc(NC(=O)CN2CCc3ccccc3C2)cc1	.	0.7	0.65	7	8	-1.0	-2	0.4	i
Cc1ccc(C2CC(=O)c3cnc(N4CCc5ccccc5C4)nc3C2)cc1 (stereo not drawn)	9%	.	0.7	.	.	.	-8	0.5	.
Cc1cc(-c2ccc(Cl)cc2)c2cnn(C(C)C)c2n1	-2%	-1.7	0.65	-2	-17	0.1	28	-1.5	i
CCCc1nnc(NC(=O)c2nc(S(=O)(=O)Cc3ccc(C)cc3)ncc2Cl)s1	.	-3.2	.	5	2	2.3	9	2.5	i
Cc1ccc(C(=O)O/N=C(\N)c2ccccn2)cc1	.	-6.6	0.71	6	10	2.1	.	2.2	i
C#CCOCCOCCOCCNc1nc(N2CCN(C(=O)[C@H](CCC(=O)O)n3cc(C(N)CC(C)C)nn3)CC2)nc(N2CCN(C(=O)[C@H](Cc3ccc(O)cc3)n3cc(C(N)CC(C)C)nn3)CC2)n1 (stereo partly drawn)	28%	.	.	.	.	.	-4	1.6	.
CC(Oc1ccc2c3c(c(=O)oc2c1)CCCC3)C(=O)NCCN1CCOCC1 (stereo not drawn)	.	0.4	0.71	4	3	-1.2	-26	5.7	i

Arranged by count of non-hydrogen atoms (high to low): part of the list above.
SMILES	Vif A3G	MLL AF4-AF9 inh	Ecoli growth	rRNA inh HTS	rRNA inh HTS OD600	rRNA inh HTS RFP	ALR H2O2 inh	HNF4A DNA FP	FGF22 binding
CC(Oc1ccc2c3c(c(=O)oc2c1)CCCC3)C(=O)NCCN1CCOCC1 (stereo not drawn)	.	0.4	0.71	4	3	-1.2	-26	5.7	i
Cc1cc(-c2ccc(Cl)cc2)c2cnn(C(C)C)c2n1	-2%	-1.7	0.65	-2	-17	0.1	28	-1.5	i
Cc1ccc(C(=O)O/N=C(\N)c2ccccn2)cc1	.	-6.6	0.71	6	10	2.1	.	2.2	i

Following part:
SMILES	Vif A3G	MLL AF4-AF9 inh	Ecoli growth	rRNA inh HTS	rRNA inh HTS OD600	rRNA inh HTS RFP	ALR H2O2 inh	HNF4A DNA FP	FGF22 binding
C/C=C/c1ccc2c(c1)O[C@H](CN(C)Cc1cccnc1)[C@@H](C)CN([C@H](C)CO)S2(=O)=O	.	2.4	.	-11	-20	-5.8	.	.	i
C[C@H]1CN([C@@H](C)CO)C(=O)c2cccc(NC(=O)c3cnccn3)c2O[C@@H]1CN(C)CC1CCCCC1	.	-4.4	.	4	12	-0.8	.	.	i
O=C(/C=C/c1cccs1)c1cc(Br)ccc1OC(=O)N1CCOCC1	10%	.	0.68	.	.	.	8	-1.8	.
C[C@@H]1CN([C@H](C)CO)C(=O)Cc2cc(NS(=O)(=O)c3cccs3)ccc2O[C@@H]1CN(C)Cc1ccc(Oc2ccccc2)cc1	.	1.3	.	-2	-7	1.0	.	.	i
O=Cc1ccc(-n2nncc2-c2ccc([N+](=O)[O-])cc2)cc1	.	1.5	0.7	5	14	2.9	-7	-1.5	i
CC1(C)Cc2c(c(=S)nc(-c3ccccc3)n2CCCN2CCOCC2)CO1	68%	.	0.72	.	.	.	18	-2.3	.
O=c1[nH]c(CN2CCN(c3ccccc3Cl)CC2)nc2ccsc12	-1%	.	0.75	.	.	.	-13	-1.1	.
Cc1ccc(NC(=O)c2ccncc2)cc1S(=O)(=O)N(C)C	.	-49	0.68	10	-10	2.9	.	-1.8	i
C[C@H]1CN([C@@H](C)CO)C(=O)c2cc(NS(=O)(=O)c3cccs3)ccc2O[C@@H]1CN(C)C(=O)Nc1ccc(C(F)(F)F)cc1	.	-1.3	.	-16	-28	1.2	.	.	i
CC1CCCC(NC(=O)CCC(=O)c2ccc(F)cc2)C1C (stereo not drawn)	-1%	0.8	0.7	7	3	2.5	2	1.4	i
Cc1cc(C)n(-c2nc3sc4c(c3c3nnc(SC(C)C)n23)CC(C)(C)OC4)n1	.	.	0.71	.	.	.	-1	5.0	.
COc1ccc(CCC(=O)OCC(=O)N(C)c2c(N)n(Cc3ccccc3)c(=O)[nH]c2=O)cc1	-6%	-2.2	0.65	1	7	-2.0	-12	-1.3	i
CCc1ccccc1N(C(=O)CNC(=O)c1ccco1)C(C(=O)NC1CCCC1)c1cccnc1 (stereo not drawn)	7%	-0.4	0.71	2	3	-2.7	-1	-0.1	i
CC(C)c1ccc(CNc2ncc(Br)cn2)cc1	-2%	-0.5	0.72	9	20	-2.5	-2	-0.3	i
O=C1CC(C(=O)O)NC(=S)N1 (stereo not drawn)	-2%	8.5	0.72	11	10	0.0	.	-0.1	i
O=C(c1ccc(COc2ccc(Cl)cc2)o1)N1N=C(C(F)F)CC1(O)C(F)F (stereo not drawn)	4%	1.6	0.71	.	.	.	2	3.0	i
COc1ccc(CNc2cccc(F)c2)cc1Br	2%	.	0.63	.	.	.	1	0.9	.
C[C@H](O)C#Cc1ccc2c(c1)O[C@@H](CN(C)C(=O)Cc1ccccn1)[C@H](C)CN([C@@H](C)CO)S2(=O)=O	.	-3.3	.	0	5	-3.6	.	.	i
CC(=O)Nc1ccc(C(=O)OCC(=O)NCc2cccs2)cc1	?	-2.1	0.64	-6	-8	7.3	-1	0.9	i
CCOc1ccc(NC(=O)CC2C(=O)N(c3cccc(OC)c3)C(=O)N2CCOC)cc1 (stereo not drawn)	-3%	-35	0.71	5	3	16	-10	-0.2	i
C/C(=N\Nc1ccccn1)c1ccc(OC(F)F)cc1	-9%	9.0	.	0	2	-2.0	89*	-1.3	.
COc1ccc(CN(C)C(=O)c2cc(S(=O)(=O)N3CCCCCC3)ccc2OC)cc1OC	.	4.3	0.68	1	-3	-1.0	-6	6.0	i
COc1ccc(NC(=O)c2ccc3c(c2)NC(=O)CS3)cc1S(=O)(=O)Nc1ccc(Br)cc1	-7%	-1.5	0.7	-15	-18	11	1	-1.8	i
Cc1ccc(Cc2nnc3n(-c4cccc(C)c4)nc(C(=O)c4ccccc4)n3c2=O)cc1	.	.	0.71	.	.	.	-1	-3.0	.
CCc1ccc2[nH]c3nc(SCCN4CCOCC4)nnc3c2c1	1%	-2.4	0.64	-8	5	-3.8	.	-3.3	i
COc1cccc(NC(=O)CN(C)C(=O)c2cc(C)on2)c1	0%	2.2	0.7	-2	-3	-2.1	-6	-1.2	.
N#Cc1ccc(C(=O)Nc2ccc(S(=O)(=O)NC3=NCCCCC3)cc2)cc1	1%	.	0.71	.	.	.	-1	-0.8	.

Not all compounds are listed; rates above refer to the full screens.
